VDR inh: Inhibitors of the vitamin D receptor (VDR): qHTS. Vitamin D3 receptor (Homo sapiens), P11473. VDR-SRC2-3 peptide fluorescence polarization, 2 h. Potency, µM, for inactives: max response, negative = inhibition, actives largely listed as inhibitors. hit rate 0.93% among 400,000. AID 504847, 2011; active means well fitted inhibition curve with a large enough effect; inconclusive means small, poorly fitted or top-dose-only effect, or another doubt; inactive means no such curve, though single readings can be large or run the other way; further: series mostly up to about 120 µM
Target sequence (P11473 whole entry, looked up): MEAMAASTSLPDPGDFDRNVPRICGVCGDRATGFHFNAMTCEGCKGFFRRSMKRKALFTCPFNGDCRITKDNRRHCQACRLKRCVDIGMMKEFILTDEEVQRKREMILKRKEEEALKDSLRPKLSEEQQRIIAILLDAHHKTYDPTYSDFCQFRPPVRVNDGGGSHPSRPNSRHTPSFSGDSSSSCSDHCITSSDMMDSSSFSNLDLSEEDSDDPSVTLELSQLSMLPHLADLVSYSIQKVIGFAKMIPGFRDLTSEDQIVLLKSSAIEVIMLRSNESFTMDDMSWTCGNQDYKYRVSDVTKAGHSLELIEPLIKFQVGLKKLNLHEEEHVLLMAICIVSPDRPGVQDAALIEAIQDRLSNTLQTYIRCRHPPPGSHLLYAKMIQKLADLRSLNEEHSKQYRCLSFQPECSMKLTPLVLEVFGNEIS
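Inhibition of the VDR/SRC2-3 peptide interaction is quantified by fluorescence polarization. Compounds (23 nl, pintool) incubate with the reagents for 2 hours at ambient room temperature.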
Numbers without * were called inactive; ? = inconclusive; & = joins results of further samples. On the % scale 0 is the no-effect control and ±100 the full control effect; potency means the concentration at half of the fitted maximal effect. Only part of the results is shown. The share of hits here may be higher or lower than overall.

SMILES	VDR inh
COc1ccc(/C=N/NC(C)(C)C)c(OC)c1	?
Cc1nc2scc(C)n2c(=O)c1S(=O)(=O)NCc1ccccc1Cl	1%&2%
Cn1cccc1/C=C1\SC(=O)N(c2ccc(O)cc2)C1=O	-7%
O=C(CNC(=O)c1ccc(Cl)cc1)NCC(F)(F)F	-7%
CCOc1cc(/C=N/O)ccc1OCc1ccc([N+](=O)[O-])cc1	?
O=C(NN1C(=O)C2C3C=CC([C@H]4CC34)[C@@H]2C1=O)c1ccc(Br)cc1 (some centres undefined)	-2%
CCc1cccc(NC(=O)c2cnn(-c3ccccc3)c2C)c1	3%
CCCOc1ccc(C(=O)Nc2cccc(NC(=O)c3cccc(Cl)c3)c2)cc1	-17%
CCC(=O)N1N=C(c2cccs2)CC1c1ccc(C)cc1 (centres undefined)	-4%
O=C(CCc1ccc(O)cc1)N/N=C/c1coc2ccccc2c1=O	-14%
CCOC(=O)C1CCCCN1Cc1ccc(C(F)(F)F)cc1 (centres undefined)	3%
CC(OC(=O)Cn1cnc2c1c(=O)n(C)c(=O)n2C)C(=O)NCc1ccccc1 (centres undefined)	-7%
CCc1ccccc1NC(=O)c1cnccn1	0%
Cc1cnc(C(=O)OCC(=O)Nc2cc(-c3ccccc3)nn2-c2ccccc2)cn1	5%
COc1ccccc1N1CC(C)(C)C(=O)N(C(=O)c2ccc(Cl)cc2)C1=S	-9%
O=C(Nc1ccc(N2CCN(C(=O)c3ccc(Cl)cc3)CC2)cc1)c1cc2ccccc2o1	7%
COC(=O)c1ccc(C2c3c(oc4ccccc4c3=O)C(=O)N2c2nc(C)c(C(=O)OC)s2)cc1 (centres undefined)	-15%
Cc1ccccc1CN1C(=O)c2ccccc2Sc2ccc(C(=O)OCc3ccco3)cc21	7%
CCN1CCOC(=O)C1CC(=O)Nc1cc(Cl)ccc1OC (centres undefined)	-22%
CCOCCCNc1nc2c(-c3ccccc3)nnn2c2ccccc12	-12%
O=[N+]([O-])c1ccc(/C=N/Nc2cc(Cl)nc(-c3ccccc3)n2)cc1	5%
Cc1ccc(C(=O)Nc2ccc(NC(=O)c3cccs3)cc2)cc1[N+](=O)[O-]	5%
COc1ccc(NC(=O)CN(C)S(=O)(=O)c2ccc(C(=O)N3CCOCC3)s2)cc1	-1%
COc1ccc(NC(=O)CN2C(=O)/C(=C3\SC(=S)N(C4CCS(=O)(=O)C4)C3=O)c3ccccc32)cc1 (centres undefined)	-18%
Cc1ccc(-c2csc(/C(C#N)=C/Nc3ccccc3SC(F)(F)F)n2)c(C)c1	1%
CC(=O)c1ccc(NC(=O)C2Cc3ccccc3CN2C(=O)c2ccccc2)cc1 (centres undefined)	-8%
Cc1ccc(NC(=O)C2CCCN2C(=O)OCc2ccccc2)cc1C (centres undefined)	-8%
O=C1c2ccccc2C(=O)c2c1cccc2N1CCOCC1	0%
COc1cc(C(=O)NC(=S)Nc2ccc3c(c2)C(=O)N(C)C3=O)cc(OC)c1OC	-9%
CCOC(=O)c1c(C)n(C)c2ccc(OCC(O)Cn3nc(C)c(Br)c3C)cc12 (centres undefined)	13%

An excerpt from above in order of formula weight, ascending:
SMILES	VDR inh
Cc1ccc(NC(=O)C2CCCN2C(=O)OCc2ccccc2)cc1C (centres undefined)	-8%
O=[N+]([O-])c1ccc(/C=N/Nc2cc(Cl)nc(-c3ccccc3)n2)cc1	5%
Cc1ccc(C(=O)Nc2ccc(NC(=O)c3cccs3)cc2)cc1[N+](=O)[O-]	5%

Next section
SMILES	VDR inh
Cc1ccc(CNC(=O)c2ccc(N3CCC4(CC3)CC(c3ccccc3)=NO4)c(NC(=O)c3c(Cl)cccc3Cl)c2)cc1	-9%
CCOC(=O)c1ccc(NC(=S)NNC(C)(C)C)cc1	-14%
COc1ccccc1N(C)S(=O)(=O)c1ccc(C(=O)N2CCCC(C(F)(F)F)C2)cc1 (centres undefined)	-2%
O=c1cc2c(nn1Cc1cccc(Cl)c1)-c1ccccc1CC2	?
COc1ccc(C2Sc3nncn3N2Cc2ccc(C#N)cc2)cc1 (centres undefined)	3%
COc1ccc([C@H]2/C=C\CN(C(=O)[C@H](Cc3ccccc3)NC(=O)OCC3c4ccccc4-c4ccccc43)CC(=O)N2Cc2ccc(F)cc2)cc1	7%
O=C(CSc1nc2ccccc2n1CCc1ccccc1)NC1CCS(=O)(=O)C1 (centres undefined)	8%
CN(C)c1ccc(P(=O)(OC2CCCCC2)C(O)c2cccnc2)cc1 (centres undefined)	-3%
O=C(N/N=C/c1ccc2c(c1)OCO2)/C(=C/c1ccc2c(c1)OCO2)NC(=O)c1ccccc1	2%
CCOc1ccc(CNC(=O)c2cc3c(s2)-c2ccccc2OC3)cc1	10%

Some of these compounds in order of the VDR inh value, low to high.
mol,VDR inh
CCOC(=O)c1ccc(NC(=S)NNC(C)(C)C)cc1,-14%
Cc1ccc(CNC(=O)c2ccc(N3CCC4(CC3)CC(c3ccccc3)=NO4)c(NC(=O)c3c(Cl)cccc3Cl)c2)cc1,-9%
CN(C)c1ccc(P(=O)(OC2CCCCC2)C(O)c2cccnc2)cc1 (centres undefined),-3%
O=C(N/N=C/c1ccc2c(c1)OCO2)/C(=C/c1ccc2c(c1)OCO2)NC(=O)c1ccccc1,2%
COc1ccc(C2Sc3nncn3N2Cc2ccc(C#N)cc2)cc1 (centres undefined),3%
COc1ccc([C@H]2/C=C\CN(C(=O)[C@H](Cc3ccccc3)NC(=O)OCC3c4ccccc4-c4ccccc43)CC(=O)N2Cc2ccc(F)cc2)cc1,7%
O=C(CSc1nc2ccccc2n1CCc1ccccc1)NC1CCS(=O)(=O)C1 (centres undefined),8%

Later entries:
SMILES	VDR inh
CC1Cc2cc(S(=O)(=O)N3CCN(c4ccccc4F)CC3)ccc2N1C(=O)C1CCC1 (centres undefined)	4%
CCSC1=N/C(=C\c2ccc(OC)cc2)C(=O)N1	5%
CCCc1cc(=O)oc2cc(C)cc(OCC(=O)NC(Cc3c[nH]c4ccc(O)cc34)C(=O)O)c12 (centres undefined)	-16%
CSc1ccccc1C(=O)C1CCCN(C(=O)c2ccc(N3CCOCC3)cc2)C1 (centres undefined)	-5%
O=C(NC1CCN(C(=O)NC2CCCCC2)CC1)c1ccco1	0%
CCCCc1c(C)nc2ccccc2c1SCCC#N	-13%
CCc1c(C)nc(SCC(=O)c2cccs2)c(C#N)c1C	2%
O=C(CSC1=N/C(=C/c2ccc(Cl)c(Cl)c2)C(=O)N1c1ccccc1F)NC1CC1	-15%
O=C(NCC1CCCO1)C(=O)N/N=C/c1ccc(O)c(Cl)c1 (centres undefined)	2%
COC(=O)c1c(N)n(-c2cc(Cl)cc(Cl)c2)c2nc3ccccc3nc12	6%
O=C(NCC1CCCO1)C1CCN(S(=O)(=O)c2cccnc2)CC1 (centres undefined)	0%
COc1ccc(C(=O)c2nccc3cc(OC)c(OC)cc23)cc1OC	-1%
O=C(CSc1nnc(CNC(=O)c2c(F)cccc2Cl)o1)Nc1cccc(F)c1	-18%
CCOCCCNc1c2c(nc3cc(-c4ccc(F)cc4)nn13)CCC2	3%
CCc1ccccc1N1CC23C=CC(O2)C(C(=O)O)C3C1=O (centres undefined)	89µM*
COc1ccc(OC)c(Nc2nc(-c3ccc(C)cc3)nc3ccccc23)c1	15%
O=C1/C(=C/c2cccnc2)Oc2cc(OS(=O)(=O)c3ccc(Cl)cc3)ccc21	-8%
OCCC1CN(Cc2cc(F)ccc2-n2cccn2)CCN1Cc1ccc(F)cc1 (centres undefined)	-2%
O=C(c1ccco1)N(Cc1cccnc1)c1nc2ccc(F)cc2s1	19%
Cc1cc(C)n2cc(COc3ccc4ccccc4c3)nc2n1	-10%
CC(Sc1ccccc1)C(=O)NN=C1CCN(C)CC1 (centres undefined)	0%
Cc1noc(C)c1NC(=O)N(C)C[C@@H]1Oc2c(NC(=O)c3ccncc3)cccc2C(=O)N([C@H](C)CO)C[C@@H]1C	-12%
COC(=O)c1c(-c2cccs2)csc1NC(=O)c1ccc(Br)cc1	?
CC(=O)C[C@@H](O)CC(=O)[C@@H]1OC(=O)[C@@H](C)C/C=C\Cc2ccccc21	10%
Cc1ccc(S(=O)(=O)N(C)CC(=O)OCC(=O)c2ccc3c(c2)NC(=O)CO3)cc1	6%
N#C/C(=C\c1ccc(OC(F)F)cc1)C(=O)N1CCCCC1	?
CC(=O)Nc1ccc(NC(=O)COc2ccc(Cl)cc2Cl)cc1	1%
O=C(/C=C/c1ccc(F)cc1)N1CC[C@@]2(O)CCCC[C@H]2C1	12%
c1ccc(-c2nc3ccccc3c3nncn23)cc1	7%
O=C(Nc1ccc2nc3n(c(=O)c2c1)CCCCC3)C(=O)N1CCN(c2ccccc2)CC1	5%

The final 3 compounds of the section before are carried over, then new ones follow:
SMILES	VDR inh
O=C(/C=C/c1ccc(F)cc1)N1CC[C@@]2(O)CCCC[C@H]2C1	12%
c1ccc(-c2nc3ccccc3c3nncn23)cc1	7%
O=C(Nc1ccc2nc3n(c(=O)c2c1)CCCCC3)C(=O)N1CCN(c2ccccc2)CC1	5%
O=C(NCCc1ccccc1)C1COc2ccccc2O1 (centres undefined)	1%
Cc1cc2cc(OCc3ccccc3)ccc2n1C	-25%
CCN1CCN(c2nc3sc4c(c3c3ncnn23)CC(C)CC4)CC1 (centres undefined)	-7%
COC(=O)C1CCN(C(=O)COC(=O)C2CCN(S(=O)(=O)c3c(Cl)cccc3Cl)CC2)CC1	4%
O=C(Cc1ccc([N+](=O)[O-])cc1)Nc1ccc(Br)cn1	10%
CC(=O)Nc1ccc(C(=O)N/N=C/c2ccc(F)cc2)cc1	-8%
CCCNC(=O)c1ccc2c(=O)c(O)c(C)[nH]c2c1	-7%
O=C(c1cccc(S(=O)(=O)NCc2ccccc2)c1)N1CCN(c2ccccc2Cl)CC1	-19%
COc1cc(NC(=O)Cc2noc3ccccc23)cc(OC)c1OC	12%
NC(=O)C[n+]1cccc(C(=O)Nc2ccccc2)c1	-3%

Looked up above:
CC(=O)c1ccc(NC(=O)C2Cc3ccccc3CN2C(=O)c2ccccc2)cc1 (centres undefined) | VDR inh = -8%
O=C(CSc1nnc(CNC(=O)c2c(F)cccc2Cl)o1)Nc1cccc(F)c1 | VDR inh = -18%
COc1cc(C(=O)NC(=S)Nc2ccc3c(c2)C(=O)N(C)C3=O)cc(OC)c1OC | VDR inh = -9%
CCOCCCNc1nc2c(-c3ccccc3)nnn2c2ccccc12 | VDR inh = -12%
Cc1ccc(-c2csc(/C(C#N)=C/Nc3ccccc3SC(F)(F)F)n2)c(C)c1 | VDR inh = 1%

Later entries.
SMILES	VDR inh
COCC(=O)OCn1nnc2ccccc2c1=O	-4%
COc1ccc(N/C=C(\C2OC(=O)c3ccccc32)[N+](=O)[O-])cc1 (centres undefined)	5%
CCc1ccccc1OCC(=O)Nc1cccc(S(=O)(=O)NC2=NCCCCC2)c1	16%
O=C(CSc1nnc2scc(-c3ccccc3)n12)Nc1ccc(Cl)cc1	-14%
Cc1c(Cc2ccccc2)c(=O)oc2cc(OCC(=O)NCC(O)c3ccccc3)ccc12 (centres undefined)	3%
COC(=O)c1c(NC(=O)c2nc(SCc3ccc(C)cc3)ncc2Cl)sc2c1CCCC2	2%
COc1ccccc1C(=O)NNC(=O)c1ccc(NS(=O)(=O)c2cccs2)cc1	-8%
COc1cc(/C=N/NC(=O)CC2(C)OCCCO2)ccc1OCc1ccc(Cl)cc1Cl	0%
CN1CCN(S(=O)(=O)c2ccc(C(=O)NC3CCCCC3)cc2)CC1	13%
Cc1cccc(OCC(=O)Nc2nnc(-c3ccco3)s2)c1	3%
Cc1cc(C(=O)OCC(=O)Nc2ccccc2F)c(C)o1	8%
O=c1c2ccccc2nc(COc2ccccc2)n1/N=C/c1c[nH]c2ccccc12	-2%
CCOc1ccc2nc(SCC(=O)NCc3ccco3)sc2c1	11%
CC(C)(C)NC(=O)CSC(=Nc1cccc(F)c1)NC#N	-1%
COc1ccc(OCC(=O)OCCN2C(=O)c3ccccc3C2=O)cc1	-5%
CSC1=NSC2=NC(=O)/C(=C\c3ccc(OC(=O)c4ccco4)cc3)C(=N)N12	-1%
CCC(C)(C)n1nnnc1C(CC(C)C)N1CCC(C(N)=O)CC1 (centres undefined)	6%
CON(C)S(=O)(=O)c1ccc2c(c1)N(Cc1ccc(C)cc1)C(=O)C1CCCN21 (centres undefined)	19%
CC1C(=O)Nc2ccc(S(=O)(=O)NCc3ccc(N(C)C)cc3)cc2NC1=O (centres undefined)	2%
CN1C[C@@H]2[C@@H]3C(=O)N(C)C(=O)[C@@H]3[C@](C)(C1=O)N2C(=O)c1ccc(C(C)(C)C)cc1	-12%
C=CC[C@@H](CC(=O)N[C@H](CO)Cc1ccccc1)C(=O)NC[C@@H](OC(=O)[C@@H](CC=C)Cc1ccc(F)cc1)c1ccccc1	-14%
Cc1noc(C)c1S(=O)(=O)Nc1ccc(C(=O)N2CCN(c3ccc(F)cc3)CC2)cc1	19%
CC(=O)c1ccc(N2CCN(C(=O)CN3C(=O)NC4(CCCCC4)C3=O)CC2)c(F)c1	13%
Cc1ccc(S(=O)(=O)N2CCOC23CCN(C(=O)C(=O)NCc2ccccc2)CC3)cc1	-13%
Cc1oc2c(C)c3oc(=O)c(CC(=O)N[C@@H](CCCNC(N)=O)C(=O)O)c(C)c3cc2c1C	-27%
CCCCC(=O)Nc1nnc(S(=O)(=O)N(CC)c2ccccc2)s1	12%
CCN(C[C@H]1N[C@@](Cc2ccccc2)(C(=O)OC)[C@H]2C(=O)N(C)C(=O)[C@@H]12)S(=O)(=O)c1ccc(C(C)(C)C)cc1	-2%
COC(=O)C1=C(C)N(CCc2c[nH]c3ccccc23)C(=O)/C1=C\N(C)C	?
CCN1CCN(CCCNC(=O)CCC(=O)N2CCOc3ccccc32)CC1	-5%
CC(C)Cc1ccc(C(=O)NCc2ccc3c(c2)OCO3)o1	-11%
Cc1cc(C)cc(OCCNC(=O)C(C)N2C(=O)c3ccccc3C2=O)c1 (centres undefined)	-21%
O=C1c2ccccc2C(=O)c2c1ccc(C(=O)N1CCCCC1)c2NCCO	6%
Cn1ccc2c(OCC(=O)NCc3ccccc3Cl)cccc2c1=O	6%

Screening results (PubChem)
